ClpP mod – qHTS Assay for Activators of ClpP. purified B. subtilis ClpP, FRET peptide cleavage, 20 min. Potency, µM (highest dose often 57.5 µM), for the others: at the top dose activity change, negative = active. hit rate 1.9% among 340,000. AID 651965, 2013; active = well fitted falling curve with a large enough effect; inconclusive = small, poorly fitted or top-dose-only effect; inactive = no such curve, though single readings can be large or run the other way; note: potency is the fitted concentration of half-maximal effect; the source files actives as falling curves though it sought activators and does not explain the sign; nearly all actives have a fitted effect of over 65% in size; many hits overshoot -100%
Target sequence (P80244 whole entry, looked up): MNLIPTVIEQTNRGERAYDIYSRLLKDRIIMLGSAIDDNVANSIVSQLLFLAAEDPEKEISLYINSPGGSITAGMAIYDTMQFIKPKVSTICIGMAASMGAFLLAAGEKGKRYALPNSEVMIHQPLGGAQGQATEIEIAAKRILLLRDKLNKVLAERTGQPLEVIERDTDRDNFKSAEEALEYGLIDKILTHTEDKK
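ClpP 10 microg/mL final, pH 8 Tris/KCl buffer with BSA, glycerol, Tween-20; compound pinned in; FRET-FV substrate; RT 20 min; Ex320/Em430; ΔFRET vs ADEP 5.8 microM, DMSO, no enzyme.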
TRPML1 blocker – blocks the human TRPML1 channel; Q9GZU1; TRPML1-inducible cells, Ca2+ dye fluorescence, FDSS; active compounds read low; inhibition of EC80 agonist-evoked calcium signal; activity change, negative = inhibition, % (no concentration beside the values); hit rate 0.02% among 390,000; in the data active means activity change below about -50%; inconclusive means about -30% to -50%; inactive means above about -30%;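 note: stimulus is agonist 54-4 at its EC80 concentration; % is set by controls: 0 for no effect and ±100 for the full control effect; compound concentration not given in the record; the text of the record puts the active cut at -80%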
Target sequence (Q9GZU1 whole entry, looked up): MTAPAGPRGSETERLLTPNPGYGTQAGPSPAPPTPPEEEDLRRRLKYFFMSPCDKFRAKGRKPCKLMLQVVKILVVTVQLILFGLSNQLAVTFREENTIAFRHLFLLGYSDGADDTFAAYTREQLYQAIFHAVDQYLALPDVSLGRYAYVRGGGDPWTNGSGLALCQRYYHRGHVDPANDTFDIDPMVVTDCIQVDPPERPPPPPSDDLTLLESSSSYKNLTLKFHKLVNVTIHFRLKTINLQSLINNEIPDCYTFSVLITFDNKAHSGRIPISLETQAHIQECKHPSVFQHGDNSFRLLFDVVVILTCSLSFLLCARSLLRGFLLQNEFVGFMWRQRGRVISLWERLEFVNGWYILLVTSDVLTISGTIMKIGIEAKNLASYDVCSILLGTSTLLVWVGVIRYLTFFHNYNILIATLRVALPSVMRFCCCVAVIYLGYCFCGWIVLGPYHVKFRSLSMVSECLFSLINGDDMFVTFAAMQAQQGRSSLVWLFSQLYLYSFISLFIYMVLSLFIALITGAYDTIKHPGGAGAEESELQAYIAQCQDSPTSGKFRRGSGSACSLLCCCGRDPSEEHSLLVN
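Calcium fluorescence in TRPML1-DL cells induced overnight with Tet: a 110 s read after compound pin addition, then a 110 s antagonist read after challenge with 54-4 at 4 uM final (EC80).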
Menin MLL FP FL – displaces fluorescein MLL peptide from human menin; Fluorescence polarization, fluorescein-MLL peptide displacement from menin; FP activity change, % at 61.4 µM; 290,000 tested, under 10 active; inconclusive = falling polarisation curve, or a change in total fluorescence; inactive = total fluorescence flat and polarisation flat or rising; no compound was filed as active; the % refers to the polarisation; negative = inhibition;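 note: % of control where 0% means no effect; inhibitors lower the polarisation; unlabelled MLL peptide was the positive control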
TRPML1 agonist – human mucolipin-1 channel agonism; Q9GZU1; TRPML1-expressing cells, Ca2+ dye fluorescence, FDSS; host cell line not named in the record; reference of the full effect not given here; activation, % (no concentration beside the values); hit rate 0.12% among 410,000; AID 624414; in the data active = activation above about 50%; inconclusive = about 30% to 50%; inactive = below about 30%; note: 0% is about no effect; the text of the record puts the active cut at 80%
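Tet-induced TRPML1-DL cells, 1,500 per well, cultured overnight, were loaded with a no-wash Ca2+ dye for 45–90 min. Calcium fluorescence was recorded on the FDSS for 110 s after compound addition, before the EC80 agonist (4 uM 54-4) was added.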
gsp antagonist – antagonists of gsp mutant (McCune-Albright syndrome). hit rate 0.4% among 340,000. AID 624288. gsp-mutant cells, cAMP HTRF, 30 min; control for the full effect not named in the record. Potency, µM (top dose mostly 76.9 µM), for the others: at the top dose activity change, negative = inhibition, actives largely listed as inhibitors; active = falling curve of any shape with a large fitted effect; inconclusive = falling curve, mostly with a smaller effect; inactive = flat or rising curve; cell line not stated here;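 note: intracellular cAMP measured with PDE inhibitor Ro 20-1724 present during compound exposure; potency is the fitted concentration of half-maximal effect; % is set by controls: 0 for no effect and ±100 for the full control effect; nearly all actives have a fitted effect of over 65% in size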
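Cells, 2000/well, grown 16–24 h in DMEM 10% FBS with 0.5 mg/ml G418, then compounds plus […] (300 uM addition stock), 30 min at 37C. cAMP read by HTRF (cAMP-d2 and anti-cAMP antibody-K in lysis buffer) after 30 min RT.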
gsp agonist – activates gsp, the McCune-Albright syndrome mutation; Potency, µM (highest dose often 76.9 µM), for the others: top-dose activation (cAMP increase), hits mostly activators; hit rate 0.13% among 340,000; gsp mutant cells, cAMP HTRF, 30 min; control for the full effect not named in the record; active = well fitted activation curve with a large enough effect; inconclusive = small, poorly fitted or top-dose-only effect, or another doubt; inactive = no such curve, though single readings can be large or run the other way; cell line not stated here;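 note: phosphodiesterase inhibitor Ro 20-1724 added with compounds to block cAMP breakdown; potency is the fitted concentration of half-maximal effect; nearly all actives have a fitted effect of over 60% in size; about a fifth of the inactives were tested at one dose only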
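Cells stably selected in G418 were plated at 2000/well, grown 16-24 hr, then given compounds in DMSO with the PDE inhibitor […] (300 uM solution added) for 30 min at 37C; cAMP was read by HTRF.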
Numbers without * were called inactive; ? = inconclusive; nt = no result given; [ ] = dose if it differs, or a comment.

mol	gsp antagonist	TRPML1 agonist	ClpP mod	TRPML1 blocker	gsp agonist	Menin MLL FP FL
O=C(CSc1nncc(=O)[nH]1)Nc1cccc([N+](=O)[O-])c1	-6%	-0.6	0.5%	-3	?	2.6
O=C(COC(=O)CCS(=O)(=O)c1ccc(Cl)cc1)NCCc1ccc(Cl)cc1Cl	2%	0.9	-1.5%	0	14%	-0.1
COc1ccc(CC(=O)Cc2ccc(OC)c(OC)c2)cc1OC	nt	-0.1	2.7%	11	34%	nt
CNc1c([N+](=O)[O-])ncn1C	9%	-1.0	-1.0%	3	8%	2.6
Fc1cc(NC(=S)NCc2ccc(CNC(=S)Nc3ccc(Cl)c(F)c3)cc2)ccc1Cl	7%	2.9	-2.3%	-18	3%	-1.9
COCCNC(=O)CN(C(=O)Cn1nnc2ccccc21)c1ccccc1	8%	0.4	-3.9%	-13	2%	-0.7
CCN1C(=O)C2C(c3ccc(O)c(OC)c3)NC(C)(C(=O)OC)C2C1=O (centres undefined)	5%	0.6	-5.5%	-5	5%	-0.9
CSc1nc(-c2ccc(F)cc2)nc2c1Cc1c(CO)cnc(C)c1O2	nt	1.0	-4.5%	-13	nt	nt
CC1CN(c2ccc(C(=O)c3ccccc3C(=O)O)cc2[N+](=O)[O-])CC(C)O1 (centres undefined)	-11%	0.2	-0.1%	-19	?	2.0
CCCOc1ncnc2c1[nH]c1ccc(C)cc12	?	-1.0	3.6%	0	6%	4.3
O=C(CN1C(=O)C(=O)N(C2CCCC2)C1=O)Nc1ccccc1OC(F)F	-10%	0.1	-4.1%	10	?	nt
COc1ccc(OCCn2cc(/C(N)=N/O)c3ccccc32)cc1	11%	0.8	-1.8%	10	-19%	-0.8

Reprinted from the part before: 2 compounds, followed by the next part.
mol	gsp antagonist	TRPML1 agonist	ClpP mod	TRPML1 blocker	gsp agonist	Menin MLL FP FL
O=C(CN1C(=O)C(=O)N(C2CCCC2)C1=O)Nc1ccccc1OC(F)F	-10%	0.1	-4.1%	10	?	nt
COc1ccc(OCCn2cc(/C(N)=N/O)c3ccccc32)cc1	11%	0.8	-1.8%	10	-19%	-0.8
COc1cc(CN2CCN(C(c3ccccc3)c3ccccc3)CC2)cc(OC)c1OC	-13%	-1.6	-0.6%	30	-7%	-5.0
CCCn1nnnc1-c1ccc(Cl)cc1	-3%	1.1	-2.2%	-4	-20%	0.8
COc1ccc(F)cc1C(=O)COC(=O)c1n[nH]c(=O)c2ccccc12	-19%	0.8	-6.1%	9	-53%[inhibitor]	nt
COC(=O)/C(=N/Nc1ccccc1Cl)Sc1nnc(C(O)c2ccccc2)n1-c1ccccc1 (centres undefined)	-22%	0.8	nt	14	-5%[15.4 µM]	0.2
COC(=O)c1cc(NC(=S)NCc2ccc(Cl)cc2)cc(C(=O)OC)c1	?	1.5	-0.5%	-11	-20%	11
NS(=O)(=O)c1ccc(NC(=O)COC(=O)c2cccc(S(=O)(=O)N3CCCC3)c2)cc1	2%	1.1	-0.6%	-2	7%	-0.8
O=C(Nn1c(O)c(C=C2N=c3ccccc3=N2)sc1=S)c1ccc(Cl)cc1	-3%	0.3	0.0%	11	?	9.7
Cc1ccc(S(=O)(=O)NCCC(=O)OCC(=O)Nc2ccccc2Cl)cc1	-7%	-0.3	nt	-28	15%	-1.3
S=C(NCCc1ccncc1)Nc1cccc2ccccc12	-10%	-0.3	nt	8	-4%[15.4 µM]	-8.8
Cn1cc(-c2csc(C(C)(O)c3cccnc3)n2)cn1 (centres undefined)	nt	-0.3	-0.3%	-9	nt	nt
Cc1cc(C)c2c(N)c(C(=O)Nc3ccccc3Br)sc2n1	-16%	0.5	4.3%	7	6%	-5.8
C[C@@H](CO)NC(=O)c1ccc2c3n(nc2c1)-c1ccc(Cl)cc1CO3	-1%	-0.1	3.9%	2	nt	2.1
CC(C)(CNS(C)(=O)=O)SCc1ccc(Cl)cc1	11%	-0.7	nt	19	14%	1.7
CC1CCc2c(C(=O)OCC(=O)Nc3cccc(S(=O)(=O)N4CCCCCC4)c3)csc2C1 (centres undefined)	-1%	0.3	-1.4%	43	-26%	6.8
COc1cc2c(c(OC)c1OC)CC(=O)N(C)CC2	6%	-0.3	-2.2%	3	7%	-1.2
COc1ccccc1NC(=O)Nc1nc(CC(=O)Nc2ccc(OC)c(OC)c2)cs1	-12%	2.0	2.9%	-13	21%	nt
CCN1C(=O)C(CC(=O)Nc2ccc(Br)cc2)N(CCCc2ccccc2)C1=S (centres undefined)	-9%	3.4	-1.6%	-15	-22%	1.3
O=C(C1=C[C@H](C2CC2)C[C@H](OCc2ccc(CO)cc2)O1)N1CCOCC1	4%	-0.3	-3.1%	16	nt	3.4
Cc1nnc(N(C)C(=O)c2cccnc2)s1	12%	1.5	-4.1%	1	30%	2.6
COc1cc(/C=C(\C#N)c2nc3ccccc3o2)ccc1O	-33%	53*	nt	-3	8%[15.4 µM]	?
COc1ccc(C(CC(=O)c2ccccc2)CC(=O)c2ccccc2)cc1OC	-13%	-0.2	nt	1	7%	-1.5
COc1ccc(C)cc1NC(=O)CCNS(=O)(=O)c1ccc2c(c1)CCC(=O)N2	-13%	-0.8	0.8%	-7	17%	1.5
CCOc1ccccc1CNC(=O)c1ccc2nc(N3CCOCC3)sc2c1	-10%	1.6	-8.3%	-15	-62%[inhibitor]	1.6
Cc1ccc(Nc2ncccc2C(=O)NCc2cccs2)c(C)c1	-32%	5.0	1.9%	3	-55%[inhibitor]	-3.8
CC(C(=O)NCc1ccco1)n1cc(C(=O)c2ccco2)c2ccccc21 (centres undefined)	9%	0.8	-1.1%	3	?	-0.7
O=C(O)c1cccc2c1C(=O)c1ccccc1-2	-16%	0.1	nt	-2	8%[15.4 µM]	0.9
CCOC(=O)C1C(=O)NC(C)C1c1ccccc1 (centres undefined)	1%	-0.2	-3.7%	-22	?	0.0
O=C(CNC(=O)c1ccccc1)Oc1cccc(Cl)c1	3%	0.4	nt	18	3%[15.4 µM]	nt
O=C1C2CCCN2C(c2cccc(F)c2)N1c1cccc(Cl)c1 (centres undefined)	0%	0.8	0.5%	39	?	-1.1
COc1cc(NS(=O)(=O)c2c(C(=O)N3CCOCC3)c(C)n(C)c2C)cc(OC)c1OC	19%	-0.3	0.8%	9	-29%	4.1
O=C(CSc1ncc2c(n1)-c1cc(Cl)ccc1N(Cc1ccccc1)S2(=O)=O)NCCc1ccccc1	nt	-0.3	-27%	11	nt	nt
CCCCOC(=O)c1ccc(O)cc1	8%	-0.4	0.5%	-2	?	1.7
O=C(/C=C/c1ccccc1)NCCSc1ccc(Cl)cc1	-14%	-0.8	-4.7%	15	7%	2.9
COc1cc(NC(=O)Nc2nnc(N3CCCCC3)s2)cc(OC)c1	nt	-0.8	-0.7%	15	nt	nt
O=c1ccc2cc(S(=O)(=O)NCc3ccc(Cl)cc3)ccc2[nH]1	nt	-0.6	-1.1%	7	nt	nt
COc1ccc(N2CCN(C(CNC(=O)C3CCCCC3)c3ccco3)CC2)cc1 (centres undefined)	-6%	0.2	-12%	7	20%	nt
CCOCCCN(C)C1CCN(C(=O)c2oc3ccccc3c2NC(=O)COc2ccc(F)cc2)CC1	4%	0.3	-4.8%	-3	14%	nt
Cc1ccc(NC(=O)CCCn2nc(C)c3c(C)n(-c4ccccc4)nc3c2=O)cc1C	21%	1.2	-1.1%	-2	?	4.5
CN1C(=O)C2(N=c3ccccc3=N2)c2ccccc21	-1%	4.9	13µM*	13	-4%	1.0
O=C(Nc1ccc(N2CCCC2)cc1)c1cccc(Cl)c1Cl	-23%	-0.7	0.8%	-3	1%[15.4 µM]	15
COc1ccccc1NC(=O)CSc1nnc(Cc2cccn2C)n1CCc1ccccc1	3%	0.7	2.5%	-3	-2%	2.9
Cn1cnc([N+](=O)[O-])c1S(=O)(=O)Oc1ccccc1	-6%	3.3	nt	2	27%	nt
COc1ccc(-c2csc3nc[nH]c(=O)c23)cc1	-5%	0.4	nt	-3	19%[15.4 µM]	2.6
NC(=O)CN(N=Nc1cccc([N+](=O)[O-])c1)c1cccc([N+](=O)[O-])c1	?	1.3	1.3%	31	-75%[inhibitor]	3.2
COc1ccccc1NC(=O)c1ccc(NC(=O)c2ccco2)cc1	-17%	-0.3	nt	2	10%	-10
COc1ccc(-c2noc(-c3ccc4c(c3)OCO4)n2)cc1	13%	2.2	-3.0%	-14	1%	3.2
CC(NC(=O)COC(=O)c1cc([N+](=O)[O-])ccc1N1CCOCC1)c1ccccc1 (centres undefined)	15%	0.4	1.8%	4	?	nt
CCN(CC)CCN(C(=O)c1ccco1)c1nc2c(C)cccc2s1	nt	1.3	?	22	nt	nt
OC1(C(F)(F)F)CC(O)(C(F)(F)F)n2nc(-c3ccccc3)cc2N1 (centres undefined)	-10%	0.1	-0.8%	-1	-19%	4.1
CN(C)CCN(C(=O)c1ccc(S(=O)(=O)N(C)C)cc1)c1nc2cc3c(cc2s1)OCCO3	-1%	-0.1	3.1%	30	2%	-6.3
CCOC(=O)Nc1ccc(=O)n(Cc2c(Cl)cccc2Cl)c1	-10%	-0.2	28µM*	1	2%	7.1
COc1ccc(CCC2(C)NC(=O)N(C(C)C(=O)N3c4ccccc4CC3C)C2=O)cc1 (centres undefined)	-10%	3.2	-1.0%	-9	-7%	nt
COc1ccc(-n2c(CN3CCC(C)CC3)nc3ccc([N+](=O)[O-])cc3c2=O)c(OC)c1	-8%	-0.8	-1.1%	24	8%	1.2
COc1ccc(-c2nn(-c3ccccc3)cc2C(=O)N2CCN(S(=O)(=O)c3cccc(F)c3)CC2)cc1	-26%	3.0	nt	29	20%[15.4 µM]	nt
Cc1[nH]c(=S)c(C#N)c(C)c1C(=O)Nc1ccccc1	10%	1.0	-2.5%	8	?	2.0
Cc1ccc(CC(=O)OCCNC(=O)c2cccnc2)cc1	4%	0.2	-0.1%	-3	-22%	-1.9
CC(=O)Nc1nnc(SCC(=O)N2C(C)CCCC2C)s1 (centres undefined)	7%	-0.6	-0.7%	-6	-3%[15.4 µM]	-5.2
CC(=O)N1CCN(C(=O)c2cc(-c3ccc(Cl)s3)nc3ccccc23)CC1	-2%	0.7	nt	-2	2%[15.4 µM]	nt
O=C(Nc1ccc2c(c1)OCCO2)C1CCN(C(=O)c2ccc(Cl)cc2)CC1	-18%	0.3	-2.7%	-5	-4%	3.3
CCC(C(=O)OCn1nnc2ccccc2c1=O)c1ccccc1 (centres undefined)	7%	-0.2	nt	2	-13%[15.4 µM]	0.4
